Screening data deposited in PubChem BioAssay by several laboratories.
RanGTP-Impb inh: disruptors of Ran-importin-beta complex formation – biochemical, FRET, CFP-Ran, YFP-importin-beta, homogeneous, primary screen | cell-free CFP-Ran/YFP-importin-beta FRET ratio | inhibition, % (test concentration not listed) | 300,000 compounds, 1.1% hits | AID 2216;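 active = most replicates above 15%; inconclusive = exactly half above 15%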;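 note: 0% = DMSO wells and 100% = Ran loaded with GDP instead of GTP; wells of about 40 µL received 100 nL stock; the first replicate is given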
Vif A3G: inhibitors of Vif binding to APOBEC3G peptide, primary screen, biochemical, TR-FRET, GST-Vif 1-94, biotin-A3G peptide, dose response retest (AID 1117319) | TR-FRET GST-Vif / biotin-A3G peptide binding; higher % means a stronger effect; test concentration not given here; strong numbers were not always called active | inhibition, %; hits with a dose series show IC50 in µM | 260,000 compounds, 0.57% hits;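 active = above the screen mean plus three standard deviations and confirmed in dose response; inconclusive = results disagree or hit not tested in dose response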;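 note: Vif residues 1-94 fused to GST binding biotinylated APOBEC3G peptide 110-148; 0% = full assay without inhibitor and 100% = GST in place of GST-Vif; retest series ran down from 100 µM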
Bfl-1 A1 inh: inhibitors of the anti-apoptotic protein A1, read as caspase activation; MEF A1-2A-BIM cells, Caspase-Glo 3/7 luminescence, 3 h; percent of clofoctol response, vehicle zero; caspase activation, % (concentration not given with the values); 330,000 compounds, 0.066% hits; AID 2462;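 active = over half of replicate activation scores above 10%, or exactly half above 10 with the replicate mean above 10; inconclusive = replicate mean below 10 yet half the replicates above 10; inactive = over half of replicates below 10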;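 note: wells of about 30 µL received 50 nL stock; many hits fall short of the cut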
T cruzi repl: blocks replication of Trypanosoma cruzi. T. cruzi beta-gal in NIH3T3, luminescence, 90 h. inhibition, % (concentration not given with the values). 300,000 compounds, 1.4% hits. AID 1885;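 active = mean inhibition across valid replicates above about 55%, limit read from the data; inconclusive = mean below that limit but half or more replicates reach it; inactive = mean below it, under half of replicates reach it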;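 note: signal also drops with host cell toxicity which is not excluded here; 0% = plate median of DMSO wells and 100% = zero luminescence signal; higher percent means less beta-gal luminescence so fewer parasites; stock transfer was 50 nL into about 50 µL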
Calb FLC: affects C. albicans growth with fluconazole. growth inhibition, % (test concentration not listed). 300,000 compounds, 0.57% hits. C. albicans CaCi-2 (fluconazole-resistant clinical isolate) + fluconazole, Alamar Blue growth, 48 h. AID 1979;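 active = most replicates above 75%; inconclusive = exactly half above 75%; inactive = most below 75%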;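 note: all wells also contain fluconazole at 8 µg/ml as a sub-toxic cotreatment; 0% = median of DMSO wells and 100% = median of geldanamycin control wells; wells of about 8 µL received 7.5 nL stock; the first replicate is given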
Ecoli rRNA inh: selective bacterial rRNA inhibition in E. coli | GFP signal change (wild-type ribosome), % (concentration not given with the values) | E. coli WT GFP vs humanized-ribosome RFP mutants, fluorescence, 24 h; active compounds read low; DMSO median 0, no signal -100 | AID 720706 | 350,000 compounds, 1.6% hits;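 active = significant combined selectivity score with lowered wild-type GFP, culture density cut under 30%, mutant RFP and density less affected; inactive = any of these conditions unmet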; note: one replicate is shown; some compounds called inactive have numbers as strong as hits
Beta cell apopt: beta cell apoptosis inhibition; INS-1E cytokine-induced death, ATP luminescence, 48 h; percent of positive-control rescue, neutral wells zero; protection from apoptosis, % (test concentration not listed); 300,000 compounds, 0.8% hits; AID 435005;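 active = all replicates at 75% or more, or half of them and the mean; inconclusive = half reach 75% but not the mean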;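 note: 0% = cytokine-treated negative control wells and 100% = positive control rescue; higher means more ATP so stronger rescue from cytokine killing; wells of about 40 µL received 100 nL stock; the first replicate is given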
MLL AF4-AF9 inh: blocks AF4 peptide binding to human AF9. P42568. AlphaScreen, biotin-AF4 peptide binding to FLAG-AF9. inhibition, % at 10 µM. 350,000 compounds, 0.47% hits;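 active = every replicate reaching a set inhibition limit, whatever the replicate mean, cut at about 25% in these data; inconclusive = mean inhibition reaches that limit but some replicates miss it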;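 note: 0% = plate neutral control median and 100% = total signal loss; the record names both 10 and 1 µM as test concentration; the first replicate is given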
Target sequence (P42568 whole entry, looked up): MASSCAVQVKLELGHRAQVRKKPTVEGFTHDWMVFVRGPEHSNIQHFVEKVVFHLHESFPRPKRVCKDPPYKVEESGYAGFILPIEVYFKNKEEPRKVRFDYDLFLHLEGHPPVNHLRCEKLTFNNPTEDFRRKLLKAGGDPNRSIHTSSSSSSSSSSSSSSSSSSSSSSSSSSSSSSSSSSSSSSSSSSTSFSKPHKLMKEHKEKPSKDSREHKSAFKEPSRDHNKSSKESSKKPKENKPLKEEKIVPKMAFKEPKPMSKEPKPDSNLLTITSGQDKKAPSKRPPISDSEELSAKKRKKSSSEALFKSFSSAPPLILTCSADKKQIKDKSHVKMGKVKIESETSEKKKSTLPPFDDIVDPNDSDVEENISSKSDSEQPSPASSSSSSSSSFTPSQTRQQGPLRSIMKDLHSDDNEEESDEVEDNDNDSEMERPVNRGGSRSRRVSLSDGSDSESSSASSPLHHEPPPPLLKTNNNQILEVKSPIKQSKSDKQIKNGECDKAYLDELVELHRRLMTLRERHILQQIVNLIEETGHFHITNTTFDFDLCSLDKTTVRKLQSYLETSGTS
Ecoli rRNA inh OD600: recorded beside Ecoli rRNA inh, whose call it bears; OD600 change, %; measured here: OD600 growth;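 optical density of the mix in the first replicate; 0 = DMSO median and -100 = no signal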
Ecoli rRNA inh RFP: second read-out of Ecoli rRNA inh, no call of its own (marks repeat the call); RFP signal change, %; measured here: RFP humanized mutant strains;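 first replicate; 0 = DMSO median and -100 = no signal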
* marks the source's active call; other numbers are inactive results; ? = inconclusive; . = not tested or not shown; & = joins results of further samples. These rows are one share of the data, so the mix of outcomes need not match the whole.

SMILES	RanGTP-Impb inh	Vif A3G	Bfl-1 A1 inh	T cruzi repl	Calb FLC	Ecoli rRNA inh	Ecoli rRNA inh OD600	Ecoli rRNA inh RFP	Beta cell apopt	MLL AF4-AF9 inh
O=C(COC(=O)c1ccc(S(=O)(=O)C(F)F)cc1)Nc1ccccc1C(=O)NC1CC1	.	-8%	-0.2	.	.	7	17	-0.3	-5	-0.6
Oc1cccc2cc3cccc(O)c3c(O)c12	0.5	-6%	0.9	-9	.	.	.	.	-3	.
CCn1c(CCC(=O)Nc2cc(F)ccc2C)nc2cc(S(=O)(=O)N(C)C)ccc21	7.9	2%&-8%	0.1	11	-1	.	.	.	-3	.
CCCc1ccc(S(=O)(=O)NCCc2ccncc2)cc1	-2.7	6%	-0.2	-53	-1	.	.	.	10	.
CCCSc1ccccc1C(=O)N1CCN(C(=O)c2ccco2)CC1	0.6	.	0.4	1	0	6	1	3.8	-4	-7.6
COc1ccc(C(=O)Nc2ccc(NC(=O)c3cc(OC)c(OC)c(OC)c3)cn2)cc1	1.1	.	0.9	14	11	2	10	-0.9	-7	0.2
N#Cc1cc(N)ccc1Sc1ccccc1	-1.0	14%	1.3	-7	14	.	.	.	-4	.
Cc1ccc(S(=O)(=O)NCCc2nnc3ccc(SCc4cccnc4)nn23)cc1	5.3	12%	0.1	-11	30	7	13	1.1	-4	3.4
CCCCN1C(=O)NC(NC(=O)C2CC2)(C(F)(F)F)C1=O (stereo unspecified)	4.7	3%	1.0	-4	4	13	3	-0.8	-6	-2.5
CCOC(=O)c1c(C)[nH]c(C(=O)N/N=C/c2ccc(OC)c(OC)c2)c1C	-1.9	.	0.6	8	-1	-6	-1	0.7	20	-0.3
O=C(Nc1ccc(N2CCOCC2)c(Cl)c1)c1ccc(-n2cnnc2)cc1	3.0	.	1.1	-7	35	4	5	0.7	-4	2.6
COc1ccc(N2CCN(C(=O)CN(c3cccc(Br)c3)S(C)(=O)=O)CC2)cc1	4.0	32%&-9%	-0.2	-14	-3	.	.	.	-1	.
COc1ccc(CNC(=O)COC(=O)Cc2ccsc2)cc1	2.5	3%	-0.7	7	7	10	13	-1.0	0	-1.7
CC(C)Sc1nnc(CNC(=O)C23CC4CC(CC(C4)C2)C3)n1C1CCCCC1	20*	.	1.5	28	-1	.	.	.	2	.
O=C(NC1CCCC1)c1ccc(CS(=O)(=O)c2ccc(Cl)cc2)o1	2.6	.	0.4	3	-9	-3	6	0.8	3	-3.5
CCCCn1c(N)c(N(CC)C(=O)c2ccc(-c3ccc(Cl)cc3)o2)c(=O)[nH]c1=O	.	.	-1.4	.	.	12	8	-1.1	0	-9.2
O=C(O)/C=C/C(=O)Nc1ccc(-n2ccc(C(F)(F)F)n2)cc1	6.0	-10%	0.3	-18	-4	2	10	-3.3	-2	-2.1
COC(=O)c1ccc(NS(=O)(=O)c2ccc(-c3cc(C)no3)s2)cc1	8.8	.	-0.2	-20	-1	-15	-23	1.2	-2	-3.0
O=C(Nc1ccc([N+](=O)[O-])c(NC(=O)c2cccnc2)c1)c1cccnc1	1.5	.	-0.5	25	-2	13	20	0.2	-7	?
Cc1ccc(S(=O)(=O)Nc2ccc3c(c2)CCC3)cc1C	-0.1	.	0.8	-21	12	.	.	.	3	.
COc1ccc(/C=N/NC(=O)c2cccc(OC(F)(F)C(F)F)c2)cc1O	-0.9	5%	-0.1	-17	-8	-5	3	6.6	.	-60
O=[N+]([O-])c1cc(Cl)cc(/C=N/NC(=S)Nc2ccc(S(=O)(=O)N3CCOCC3)cc2)c1O	-1.2	?	-0.3	15	109*	-20	-15	-3.6	13	4.6
Cc1ccccc1OCCC(=O)OCC(=O)NC1CCCCC1	5.2	.	-0.3	-9	-4	2	6	-0.9	-3	-2.2
COc1cccc(OCCn2cc(C=O)c3ccccc32)c1	6.0	.	0.9	9	7	-20	-20	2.2	0	-3.3
Cn1cccc1CNC(=S)Nc1ccccc1Cl	5.8	-6%	0.3	-12	-3	2	9	-3.6	5	4.7

Next section.
SMILES	RanGTP-Impb inh	Vif A3G	Bfl-1 A1 inh	T cruzi repl	Calb FLC	Ecoli rRNA inh	Ecoli rRNA inh OD600	Ecoli rRNA inh RFP	Beta cell apopt	MLL AF4-AF9 inh
Cc1cc(C(=O)Cn2nc(C(=O)O)c3ccccc3c2=O)c(C)n1C1CC1	2.3	.	0.0	-9	-4	5	-6	1.7	2	-1.3
Fc1ccc(CSc2nncn2NC/C=C/c2ccccc2)cc1	-2.3	7%	0.2	1	-1	.	.	.	0	.
COc1ccc(C(O)P(=O)(OCC(C)C)c2ccc(N(C)C)cc2)c(OC)c1 (stereo unspecified)	1.0	-4%	0.4	-1	21	5	3	1.1	-1	-1.9
COc1ccc(S(=O)(=O)N2CCCCCC2)cc1NC(=O)Cc1ccc(OC)c(OC)c1	.	2%	0.4	.	.	-5	-1	10	-1	-0.1
CCCCN(CC)Cc1ccc(CNC(=O)Nc2ccc(OC)cc2OC)o1	5.8	5%	-0.2	41	0	.	.	.	-1	.
Cc1ccc(-c2nc3ncccc3o2)cc1NC(=O)CC(C)C	-0.6	?	0.1	1	5	.	.	.	7	.
CCCCCOC(=O)c1ccccc1C(=O)O	1.1	-2%	-0.3	9	-17	.	.	.	-3	.
CSc1ccc(C(=O)N2CCC(CCC(=O)NC3CC3)CC2)cc1	-0.8	3%	0.8	-12	-5	3	9	-3.2	-8	-0.3
COc1ccc(C)cc1NC(=O)C(OC(=O)CNC(=O)c1cc(C)cc(C)c1)c1ccccc1 (stereo unspecified)	-2.8	.	-0.4	-5	0	-1	3	-1.8	-6	-4.1
O=C(O)c1csc(-n2nc(-c3ccccc3)cc2C(F)(F)F)n1	-0.5	2%	-0.8	5	55	-12	-12	-1.3	-3	-1.5
O=C(Nc1ccc(-n2cc(Br)cn2)cc1)c1ccncc1	1.2	.	-1.1	-22	9	3	13	9.3	11	0.9
CCC(=O)Nc1ccc(N2CCN(C(=O)c3cccs3)CC2)cc1	?	17%	0.3	-11	4	12	11	3.9	0	1.2
CC12CCC(C(N)=O)(C1Br)C2(C)C (stereo unspecified)	-0.9	.	-0.5	-15	-7	.	.	.	.	.
CC1CN(S(=O)(=O)c2cccc(C(=O)Nc3ccc4c(c3)CCC4)c2)CC(C)O1 (stereo unspecified)	3.9	-8%	-1.3	-3	-9	-15	-38	-2.6	0	9.0
COc1ccc(/C=C/C(=O)Nc2ccccc2C)cc1S(=O)(=O)N1CCOCC1	1.2	.	-0.8	5	-4	-12	-8	1.1	2	-0.1
O=C(NC1CCCCC1)c1cccs1	-3.7	-3%	0.0	3	-5	.	.	.	-2	.
COc1ccc(-c2nc(CNS(=O)(=O)c3ccc(OC)c(OC)c3)cs2)cc1	2.2	-6%	0.5	-8	2	-8	-48	-8.5	-5	1.0
O=C(NCCc1ccc(F)cc1)C1CCCCC1	-1.7	.	0.8	2	10	-6	-1	-3.2	-3	-3.9
COC(=O)c1ccccc1NC(=O)COc1ccccc1	?	7%	-4.1	9	-16	.	.	.	-4	.
Cc1ccc(N2CC(C(=O)N3CCC(C(=O)NCCCOC(C)C)CC3)CC2=O)cc1 (stereo unspecified)	2.7	.	0.7	1	-1	7	6	2.5	.	-0.2
COc1ccc(CC(=O)N2CCN(c3ccccn3)CC2)cc1	-0.7	20%	-0.6	-6	-2	.	.	.	-12	.
Cc1c(C(=O)Nc2c(C)n(C)n(-c3ccccc3)c2=O)oc2c(Cl)cccc12	0.5	.	-0.3	-8	-4	-1	-1	-0.6	6	-0.1
CCCN(CCO)Cc1ccc2ccccc2c1	0.6	9%	0.6	12	-9	16	9	3.6	-9	-5.0
CCCC(=O)C1C(=O)CC(C)(C)C(c2cc(C)no2)C1=O (stereo unspecified)	5.9	2%	0.2	-12	4	.	.	.	.	.
N#CCc1ccc(NC(=O)c2cc(S(=O)(=O)N3CCOCC3)ccc2Cl)cc1	-5.3	.	1.2	0	29	4	3	0.4	3	-7.6

Following part:
SMILES	RanGTP-Impb inh	Vif A3G	Bfl-1 A1 inh	T cruzi repl	Calb FLC	Ecoli rRNA inh	Ecoli rRNA inh OD600	Ecoli rRNA inh RFP	Beta cell apopt	MLL AF4-AF9 inh
NCC(O)CN1CCN(Cc2ccccc2)CC1 (stereo unspecified)	8.9	.	2.9	-23	-5	9	19	-1.2	-4	1.2
O=C(N/N=C1\CCc2ccccc21)c1ccccc1O	0.1	.	-7.6	-19	-3	.	.	.	17	.
Cc1cccc(NC(=O)C(C)N2C(=O)c3ccccc3S2(=O)=O)n1 (stereo unspecified)	-2.5	.	-0.2	-4	13	9	9	-1.0	-5	-1.7
CCOc1ccc(N(C(C)C(=O)N2CCOCC2)S(C)(=O)=O)cc1 (stereo unspecified)	-0.9	.	0.2	-4	34	-2	-3	6.4	-5	2.2
O=C(COC(=O)Cn1cnc2ccccc2c1=O)Nc1cc(Cl)ccc1[N+](=O)[O-]	0.2	13%	-0.3	-9	2	3	0	2.8	-2	3.5
CC(C)c1ccc(/C=C/C(=O)NCCC2=CCCCC2)cc1	2.2	.	0.1	2	5	.	.	.	2	-1.9
COc1ccc(CN2CCNC(=O)C2CC(=O)N(C)Cc2nc(C)cs2)c(OC)c1 (stereo unspecified)	?	.	-0.9	-4	0	10	8	-1.8	-5	-1.2
CCCCN(C(=O)CSc1ncn[nH]1)c1c(N)n(Cc2ccccc2)c(=O)[nH]c1=O	.	20%	0.4	.	.	5	12	-1.9	-3	4.8
O=C(NC(=S)NCc1ccccc1)c1cccs1	3.4	.	0.5	-15	-7	-15	-46	10	-2	1.7
Brc1cnc(N2CCCCC2)nc1N1CCOCC1	-0.2	-5%	0.0	7	-11	.	.	.	-3	.
CC(C)C(C(=O)Nc1nccs1)c1ccccc1 (stereo unspecified)	?	-2%	-0.1	-11	.	.	.	.	3	.
C=CCC1(C(=O)N(C)Cc2ccccc2)CCN(C(=O)OC(C)(C)C)CC1	-2.3	.	1.3	19	-31	1	9	-2.6	-1	-1.0
CCn1c(=N)n(CC(=O)c2cccc(OC)c2)c2ccccc21	0.8	9%	0.2	7	22	.	.	.	-6	.
CC1CCc2cc(F)ccc2N1C(=O)CSc1nnc2c3cc(F)ccc3n(C)c2n1 (stereo unspecified)	3.3	18%	-0.6	37	-18	.	.	.	-2	.
COc1ccc(-c2noc(CN(C)C(=O)c3ccoc3C)n2)cc1OC	1.7	.	-0.3	1	0	0	-4	0.7	-4	0.8
CC(=O)c1ccc(NC(=S)Nc2ccn(Cc3ccc(Br)cc3)n2)cc1	-2.6	-7%	0.0	-7	-26	-20	-35	17	-4	1.4
CCCCc1nnc(NC(=O)C(C)Sc2nc(N)cc(=O)[nH]2)s1 (stereo unspecified)	?	4%	1.0	-12	76*	.	.	.	-1	.
CCC(Sc1ccccn1)C(=O)Nc1cccc([N+](=O)[O-])c1 (stereo unspecified)	-3.4	33%	1.1	3	-38	-11	-7	3.6	1	6.3
CCn1c([N+](=O)[O-])nc2c1c(=O)[nH]c(=O)n2C	3.5	-4%	.	26	2	17	19	3.4	.	-0.5
